MLL AF4-AF9 inh – inhibitors of human MLL-AF4/AF9 interaction | AlphaScreen, biotin-AF4 peptide binding to FLAG-AF9 | 350,000 compounds, 0.47% hits | AID 651704 | P42568 | inhibition, % at 10 µM;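 active means every replicate reaching a set inhibition limit, whatever the replicate mean, cut at about 25% in these data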;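 further: 0% = plate neutral control median and 100% = total signal loss; the record names both 10 and 1 µM as test concentration; the first replicate is given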
Target sequence (P42568 whole entry, looked up): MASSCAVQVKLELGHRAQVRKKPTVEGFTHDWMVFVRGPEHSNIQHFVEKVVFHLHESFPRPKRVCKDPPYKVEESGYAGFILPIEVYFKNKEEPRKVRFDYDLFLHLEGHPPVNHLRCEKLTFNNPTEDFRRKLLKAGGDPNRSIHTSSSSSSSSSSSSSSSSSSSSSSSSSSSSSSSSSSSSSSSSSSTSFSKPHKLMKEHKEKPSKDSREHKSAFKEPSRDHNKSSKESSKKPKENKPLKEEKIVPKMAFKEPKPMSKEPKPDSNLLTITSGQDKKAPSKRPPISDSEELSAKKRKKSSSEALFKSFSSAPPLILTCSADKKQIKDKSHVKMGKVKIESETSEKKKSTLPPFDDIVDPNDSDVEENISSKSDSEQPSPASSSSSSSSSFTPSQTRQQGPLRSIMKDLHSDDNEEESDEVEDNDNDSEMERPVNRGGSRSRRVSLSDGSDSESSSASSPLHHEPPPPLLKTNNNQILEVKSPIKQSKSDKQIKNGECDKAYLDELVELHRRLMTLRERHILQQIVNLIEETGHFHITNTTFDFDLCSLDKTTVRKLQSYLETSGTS
rRNA inh HTS – inhibitors of bacterial rRNA selective over humanized ribosomes; E. coli WT GFP vs humanized-ribosome RFP mutants, fluorescence, 24 h; stronger effect = lower value; DMSO median 0, no signal -100; 350,000 compounds, 1.6% hits; GFP signal change (wild-type ribosome), % (test concentration not listed);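 active means significant combined selectivity score with lowered wild-type GFP, culture density cut under 30%, mutant RFP and density less affected; inactive means any of these conditions unmet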; further: one replicate is shown; some compounds called inactive have numbers as strong as hits
FGF22 binding – FGF22 (human) thermal shift binding; recombinant FGF22 thermal shift, SYPRO orange fluorescence; percent of sucrose octasulfate shift, DMSO zero; Q9HCT0; 340,000 compounds, 1.5% hits; calls only at 9.99 µM; AID 651658;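 active means melting point raised past a set limit in the mean and every replicate; three in four hits are not shown here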
Target sequence (Q9HCT0 whole entry, looked up): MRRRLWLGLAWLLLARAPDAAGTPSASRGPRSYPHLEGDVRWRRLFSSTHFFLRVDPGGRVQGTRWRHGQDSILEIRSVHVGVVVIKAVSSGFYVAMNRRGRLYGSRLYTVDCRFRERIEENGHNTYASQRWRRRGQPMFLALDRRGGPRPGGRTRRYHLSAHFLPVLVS
rRNA inh HTS OD600 – also measured in rRNA inh HTS; calls as there; OD600 change, %; measured here: OD600 growth;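 optical density of the mix in the first replicate; 0 = DMSO median and -100 = no signal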
rRNA inh HTS RFP – recorded beside rRNA inh HTS, whose call it bears; RFP signal change, %; measured here: RFP humanized mutant strains;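 first replicate; 0 = DMSO median and -100 = no signal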
Numbers without * were called inactive; i = inactive; & = joins results of further samples.

SMILES	MLL AF4-AF9 inh	rRNA inh HTS	rRNA inh HTS OD600	rRNA inh HTS RFP	FGF22 binding
Cc1ccc2ccccc2c1C(O)c1ncc(-c2ccc(F)cc2)[nH]1 (centres undefined)	1.8	-1	-6	3.8	i
COc1ccc2c3c([nH]c2c1)[C@@H](CO)N(C(=O)NC(C)C)CC31CN(C(=O)C2CCCC2)C1	3.7	0	8	-3.4	i
COCCNC(=O)c1cc2c(c(-c3cccc(C4=CCCC4)c3)n1)[C@@H](CCO)N([S@](=O)C(C)(C)C)C2	-4.1	3	11	-1.8	i
CC(C)NC(=O)Nc1ccc2c(c1)CC(=O)N([C@H](C)CO)C[C@@H](C)[C@@H](CN(C)Cc1ccncc1)O2	0.7	2	2	-2.2	i
O=C(NCc1cccc(Cl)c1)c1cccc2c(-c3cccnc3)coc12	-1.4	-58	-73	-20	i
S=C1NCCN1CC1CCN(CCCC2CCCC2)CC1	3.4	7	25	-2.0	i
C[C@@H]1CCCCO[C@@H](CN(C)C(=O)Cc2ccccc2)[C@@H](C)CN([C@H](C)CO)C(=O)c2cc(NC(=O)Nc3ccc4c(c3)OCO4)ccc2O1	0.8	4	2	-1.3	i
COCC(=O)N[C@H]1CC[C@@H](CC(=O)N2CCCCC2)O[C@@H]1CO	-4.1	0	6	-1.3	i
CC=Cc1ccc2n(c1=O)C[C@H]1[C@H](CO)[C@@H](C(=O)Nc3ccc(-c4ccccc4)cc3)N(CCC)[C@@H]21 (mixture of isomers)	4.5	-5	-11	13	i
CC(C)NC(=O)N(C)C[C@@H]1OCCCC[C@H](C)Oc2ccc(NS(C)(=O)=O)cc2C(=O)N([C@@H](C)CO)C[C@@H]1C	-1.6	1	0	-3.5	i
CC1(c2nnnn2-c2ccc3c(c2)OCCO3)CCC(=O)N1CC1CCCCC1 (centres undefined)	-0.6	0	2	3.8	i
Cc1ccccc1S(=O)(=O)N1C[C@@H]2[C@H](c3ccccc31)[C@H](CO)N2C(=O)CC1CC1	2.5	-8	-12	-0.5	i
CO[C@H]1CN(C)C(=O)c2ccc(NS(=O)(=O)c3cn(C)cn3)cc2OC[C@@H](C)N(C)C[C@H]1C	-1.4	5	2	-0.3	i
COc1ccccc1C#Cc1cnc2c(c1)C(=O)N([C@H](C)CO)C[C@H](C)[C@H](CN(C)C(=O)CN(C)C)O2	5.2	6	15	-0.9	i
C[C@H]1CN([C@@H](C)CO)C(=O)c2ccccc2-c2ccccc2CO[C@H]1CN(C)C(=O)Nc1ccc2c(c1)OCO2	-4.7	0	-2	-4.2	i
CCCNC(=O)N1C[C@H](O)COC[C@@H]2O[C@@H](CC(=O)NCc3ccc(Cl)c(Cl)c3)CC[C@H]21	-0.6	-5	-4	0.4	i
CC(=O)C1=CCC(c2ccco2)N(S(=O)(=O)c2ccc(C)cc2)C1 (centres undefined)	0.8	-6	-17	-7.7	i
COCOc1cccc(CN2CCC2(C)C(=O)NCCNC(C)=O)c1 (centres undefined)	-3.4	6	17	0.6	i
O=C(NCC[C@@H]1CC[C@H](NS(=O)(=O)Cc2ccccc2)[C@@H](CO)O1)C1CC1	0.5	3	5	-1.6	i
CCS(=O)(=O)N1CC2(CN(C(=O)Nc3c(C)noc3C)[C@H](CO)c3[nH]c4cc(OC)ccc4c32)C1	-4.7	2	5	-1.5	i
COCC(=O)N1CC2(C1)CN(Cc1cc(F)ccc1F)[C@@H](CO)c1c2c2ccc(OC)cc2n1C	-0.9	-2	-7	1.0	i
Cc1noc(C)c1S(=O)(=O)Nc1ccc2c(c1)C(=O)N([C@H](C)CO)C[C@@H](C)[C@@H](CN(C)C(=O)NC(C)C)O2	-3.7	3	4	-0.7	i
CCOC(=O)[C@]12CCC=C1N(Cc1ccccc1)C(=O)[C@H](CC(=O)N1CCCC1)C2	-2.7	10	5	0.6	i
C[C@H]1CN([C@@H](C)CO)C(=O)c2cc(-c3cccc(F)c3)cnc2O[C@H]1CN(C)C(=O)Nc1cc(F)ccc1F	0.6	-3	-3	5.5	i
Cc1noc(C)c1NC(=O)N[C@@H]1C=C[C@@H](CC(=O)N2CCN(C)CC2)O[C@H]1CO	-1.0	5	10	-1.7	i

Fetched by compound from above, 3 records:
SMILES	MLL AF4-AF9 inh	rRNA inh HTS	rRNA inh HTS OD600	rRNA inh HTS RFP	FGF22 binding
COCCNC(=O)c1cc2c(c(-c3cccc(C4=CCCC4)c3)n1)[C@@H](CCO)N([S@](=O)C(C)(C)C)C2	-4.1	3	11	-1.8	i
CC(C)NC(=O)N(C)C[C@@H]1OCCCC[C@H](C)Oc2ccc(NS(C)(=O)=O)cc2C(=O)N([C@@H](C)CO)C[C@@H]1C	-1.6	1	0	-3.5	i
O=C(NCc1cccc(Cl)c1)c1cccc2c(-c3cccnc3)coc12	-1.4	-58	-73	-20	i

The list goes on:
SMILES	MLL AF4-AF9 inh	rRNA inh HTS	rRNA inh HTS OD600	rRNA inh HTS RFP	FGF22 binding
COc1ccccc1NC(=O)N(C)C[C@@H]1OCc2cnnn2CCCC(=O)N([C@H](C)CO)C[C@@H]1C	1.0&0.4	20&-1	14&3	1.5&0.3	i
CCOc1ccc(NC(=O)c2ccc(F)c(S(=O)(=O)N3CCCC3)c2)cc1	-1.9	4	16	-1.0	i
C[C@H](CO)N1C[C@H](C)[C@@H](CN(C)C(=O)Nc2ccc3c(c2)OCO3)Oc2ccc(NC(=O)C3CC3)cc2C1=O	-7.5	2	6	-0.3	i
O=c1c2ccccc2sn1-c1ccccc1F	-8.8	12	7	0.2	i
CC(C)NC(=O)Nc1cccc2c1O[C@H](CN(C)C(=O)Nc1ccccc1)[C@H](C)CN([C@H](C)CO)C2=O	-3.0	3	7	6.1	i
CCc1nc2c(OCCn3cccc3)cccn2c1N(C=O)Cc1ccccc1	4.5	-3	20	-2.3	i
CCc1nc2ccc(C(=O)N3CCN(C)CC3)cn2c1N(C)CCCc1ccccc1	2.7	2	8	-4.4	i
COc1ccc(S(=O)(=O)N(C)C[C@H]2Oc3ccc(NC(=O)Nc4cccc5ccccc45)cc3CC(=O)N([C@@H](C)CO)C[C@@H]2C)cc1	2.1	-3	2	-2.3	i
O=C(NCC[C@H]1CC[C@H](NS(=O)(=O)c2ccc(F)cc2)[C@H](CO)O1)Nc1ccc(Cl)cc1	3.5	-55	-73	16	i
Cc1cc(Br)ccc1NC(=O)CCCOc1cc(=O)n(C)c2ccccc12	-4.1	-29	-55	-6.4	i
C[C@H]1CN([C@@H](C)CO)C(=O)c2cc(/C=C/c3ccccc3)cnc2O[C@H]1CN(C)S(=O)(=O)c1ccccc1	3.3	-5	-1	6.2	i
C[C@@H]1CCCCO[C@@H](CN(C)Cc2ccncc2)[C@@H](C)CN([C@H](C)CO)C(=O)c2cc(NS(=O)(=O)c3ccc(Cl)cc3)ccc2O1	1.0	-1	4	3.1	i
Cc1noc(NS(=O)(=O)c2ccc(NC(=O)/C=C/c3ccc(Cl)cc3Cl)cc2)c1C	-2.8	-2	-28	-3.5	i
Cc1noc(C)c1NC(=O)N(C)C[C@@H]1OCc2ccccc2-c2ccccc2C(=O)N([C@@H](C)CO)C[C@H]1C	-2.5	-1	-7	-5.5	i
COc1cc(Cl)c(C)cc1NC(=O)c1ccccc1NC(=O)CN1CCN(C(C)=O)CC1	-0.9	5	1	1.9	i
O=C(NC(c1ccc(-c2ccccc2)cc1)c1cnccn1)C1CCN(Cc2ccc3c(c2)OCO3)CC1 (centres undefined)	14	-1	-20	21	i
COc1ccc(-c2cn(CC[C@H]3CC[C@@H](NC(=O)Nc4ccc(F)cc4)[C@@H](CO)O3)nn2)cc1	8.9	-8	-7	4.5	i
C[C@@H]1CN([C@H](C)CO)C(=O)c2cccc(NC(=O)CCCCCC(=O)Nc3ccccc3N)c2O[C@H]1CN(C)S(=O)(=O)c1cccs1	1.0	-1	5	1.8	i
CN(Cc1c(C(=O)N/N=C/c2c(F)cccc2Cl)nnn1-c1nonc1N)C1CCCCC1	-1.9	8	10	0.9	i
C[C@H](CO)N1C[C@H](C)[C@@H](CN(C)Cc2ccncc2)Oc2cc(-c3cncnc3)ccc2S1(=O)=O	-1.0	0	-2	-1.8	i
Cc1ccc(S(=O)(=O)Nc2ccc3c(c2)C(=O)N([C@@H](C)CO)C[C@H](C)[C@H](CN(C)C(=O)Nc2ccccc2)OCCCC[C@H](C)O3)cc1	-1.9	2	0	-0.4	i
COc1ccc(NC(=O)Nc2ccc3c(c2)C(=O)N([C@H](C)CO)C[C@H](C)[C@@H](CN(C)C(=O)Nc2ccc(OC)cc2)OCCCC[C@H](C)O3)cc1	-3.6	-2	0	1.0	i
C[C@H](CO)N1C[C@H](C)[C@@H](CN(C)S(=O)(=O)c2ccc(Cl)cc2)OCCCC[C@H](C)Oc2ccc(NC(=O)CCC(F)(F)F)cc2C1=O	-0.7	2	-2	0.0	i
COc1ccc(CN(C)C[C@@H]2OCCCC[C@@H](C)Oc3ccc(N(C)C)cc3C(=O)N([C@H](C)CO)C[C@@H]2C)cc1	12&6.9	5&1	3&-8	-1.0&0.6	i
Cc1noc(C)c1NC(=O)Nc1ccc2c(c1)C(=O)N([C@H](C)CO)C[C@@H](C)[C@H](CN(C)S(C)(=O)=O)OCCCC[C@@H](C)O2	-1.4	3	4	1.5	i

Some of the entries above in another layout:
molecule | MLL AF4-AF9 inh | rRNA inh HTS | rRNA inh HTS OD600 | rRNA inh HTS RFP | FGF22 binding
CCOc1ccc(NC(=O)c2ccc(F)c(S(=O)(=O)N3CCCC3)c2)cc1 | -1.9 | 4 | 16 | -1.0 | i
COc1ccc(-c2cn(CC[C@H]3CC[C@@H](NC(=O)Nc4ccc(F)cc4)[C@@H](CO)O3)nn2)cc1 | 8.9 | -8 | -7 | 4.5 | i
COc1cc(Cl)c(C)cc1NC(=O)c1ccccc1NC(=O)CN1CCN(C(C)=O)CC1 | -0.9 | 5 | 1 | 1.9 | i

Following part
SMILES	MLL AF4-AF9 inh	rRNA inh HTS	rRNA inh HTS OD600	rRNA inh HTS RFP	FGF22 binding
C[C@H]1CCCCO[C@H](CN(C)C(=O)Nc2ccc3c(c2)OCO3)[C@@H](C)CN([C@@H](C)CO)C(=O)c2cc(NC(=O)CCC(F)(F)F)ccc2O1	4.5	-4	-5	-0.9	i
N#C[C@H]1[C@@H](c2ccccc2-c2ccccc2F)[C@@H](CO)N1C(=O)C1CC1	-1.1	-6	1	0.8	i
COC(=O)c1sccc1-n1cc2c(c1-c1ccccc1)c(=O)n(C)c(=O)n2C	1.5	14	9	1.3	i
CCCNC(=O)N1[C@H](C#N)[C@H](c2ccccc2-c2cccc(OC)c2)[C@@H]1CO	-1.9	3	-14	-0.9	i
CC(C)NC(=O)N1CCCCN2[C@H](CO)[C@@H](c3ccc(C#Cc4ccccc4F)cc3)[C@H]2C1	-1.7	-59	-79	-15	i
CCC(=O)N(C)C[C@H]1Oc2cc(C#C[C@H](C)O)ccc2S(=O)(=O)N([C@H](C)CO)C[C@H]1C	-1.0	-1	3	-2.0	i
CCOC(=O)C1=C(COC(=O)/C=C/c2ccc(F)cc2)NC(=O)NC1C (centres undefined)	-3.5	17	21	2.7	i
CC(C)NC(=O)N(C)C[C@@H]1Oc2c(NC(=O)CCCCCC(=O)Nc3ccccc3N)cccc2C(=O)N([C@@H](C)CO)C[C@@H]1C	2.0	5	0	-2.0	i
CCCC(=O)Nc1ccc2c(c1)OC[C@H](C)N(Cc1nccs1)C[C@@H](C)[C@@H](OC)CN(C)C2=O	-0.3	-3	-3	-1.4	i
CN(C)CC(=O)N[C@H]1CC[C@H](CCNS(=O)(=O)c2ccccc2)O[C@H]1CO	-1.1	-2	2	1.3	i
CCC(=O)N1CC(=O)N2[C@@H](CO)[C@H](c3ccc(C#CCC(C)C)cc3)[C@@H]2C1	-3.1	2	7	2.0	i
CCC(=O)N1CC[C@H]2[C@@H]1c1cc(C#Cc3ccccc3OC)ccc1N(C)[C@H]2CO	12	-5	-4	2.0	i
CO[C@@H]1CN(C)C(=O)c2ccc(NC(C)=O)cc2OC[C@@H](C)N(C(=O)C2CC2)C[C@H]1C	-1.8	4	1	-0.4	i
C[C@@H]1CN([C@H](C)CO)C(=O)c2cc(NC(=O)c3ccncc3)ccc2O[C@H]1CN(C)S(=O)(=O)c1cccs1	-2.3	1	6	-0.4	i
C[C@H]1CCCCO[C@H](CN(C)S(=O)(=O)c2ccccc2)[C@@H](C)CN([C@@H](C)CO)C(=O)c2cc(NC(=O)Nc3cccc4ccccc34)ccc2O1	-6.7	-7	1	-4.4	i
CO[C@@H]1CN(C)C(=O)c2cc(NC(=O)c3nc4ccccc4s3)ccc2OC[C@@H](C)N(Cc2cncnc2)C[C@@H]1C	3.6	-10	-5	2.9	i
COCC(=O)N(C)C[C@@H]1Oc2cc(-c3ccncc3)ccc2S(=O)(=O)N([C@@H](C)CO)C[C@H]1C	-2.1	2	0	-5.7	i
C[C@@H]1CN([C@H](C)CO)C(=O)c2cccc(NC(=O)c3cnccn3)c2O[C@@H]1CN(C)C(=O)Nc1ccc(F)cc1	-2.0	-3	0	-1.3	i
CCCS(=O)(=O)NC(=O)C1(C)CCCN(C(=O)c2cc3ccccc3s2)C1 (centres undefined)	-3.1	8	4	1.2	i

Screening data from PubChem BioAssay.

This is a subset; rates above refer to the full screens.
